Screening results (PubChem BioAssay)
ClpP mod = qHTS Assay for Activators of ClpP. ATP-dependent Clp protease proteolytic subunit (Bacillus subtilis (strain 168)), P80244. purified B. subtilis ClpP, FRET peptide cleavage, 20 min. Potency, µM (top dose mostly 57.5 µM), for the others: at the top dose activity change, negative = active. actives 1.9% (n = 340,000). AID 651965, 2013; active = well fitted falling curve with a large enough effect; inconclusive = small, poorly fitted or top-dose-only effect; inactive = no such curve, though single readings can be large or run the other way; note: potency is the fitted concentration of half-maximal effect; the source files actives as falling curves though it sought activators and does not explain the sign; nearly all actives have a fitted effect of over 65% in size; many hits overshoot -100%
Target sequence (P80244 whole entry, looked up): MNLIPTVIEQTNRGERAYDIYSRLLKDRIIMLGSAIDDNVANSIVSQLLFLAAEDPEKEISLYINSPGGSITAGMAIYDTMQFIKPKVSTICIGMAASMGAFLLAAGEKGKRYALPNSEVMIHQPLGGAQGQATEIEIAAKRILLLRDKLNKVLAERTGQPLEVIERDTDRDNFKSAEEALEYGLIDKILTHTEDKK
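Buffer: 100 mM Tris/HCl pH8, 100 mM KCl, 0.05% low protease BSA, 2.5% glycerol, 0.01% Tween-20. ClpP 10 microg/mL final; 20 min RT; delta FRET normalized to ADEP and DMSO controls.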
TRPV1 potentiator = enhances activation of the human vanilloid receptor TRPV1. potentiation, % at 8.33 µM. TRPV1-expressing cells, Fluo-8 calcium influx, capsaicin EC20 potentiation; host cell line not named in the record; control for the full effect not named in the record. actives 0.02% (n = 320,000). AID 540277; active means potentiation above 80%; inconclusive means 30% to 80%; inactive means below 30%; note: 0% is about no effect
Target sequence (Q8NER1 whole entry, looked up): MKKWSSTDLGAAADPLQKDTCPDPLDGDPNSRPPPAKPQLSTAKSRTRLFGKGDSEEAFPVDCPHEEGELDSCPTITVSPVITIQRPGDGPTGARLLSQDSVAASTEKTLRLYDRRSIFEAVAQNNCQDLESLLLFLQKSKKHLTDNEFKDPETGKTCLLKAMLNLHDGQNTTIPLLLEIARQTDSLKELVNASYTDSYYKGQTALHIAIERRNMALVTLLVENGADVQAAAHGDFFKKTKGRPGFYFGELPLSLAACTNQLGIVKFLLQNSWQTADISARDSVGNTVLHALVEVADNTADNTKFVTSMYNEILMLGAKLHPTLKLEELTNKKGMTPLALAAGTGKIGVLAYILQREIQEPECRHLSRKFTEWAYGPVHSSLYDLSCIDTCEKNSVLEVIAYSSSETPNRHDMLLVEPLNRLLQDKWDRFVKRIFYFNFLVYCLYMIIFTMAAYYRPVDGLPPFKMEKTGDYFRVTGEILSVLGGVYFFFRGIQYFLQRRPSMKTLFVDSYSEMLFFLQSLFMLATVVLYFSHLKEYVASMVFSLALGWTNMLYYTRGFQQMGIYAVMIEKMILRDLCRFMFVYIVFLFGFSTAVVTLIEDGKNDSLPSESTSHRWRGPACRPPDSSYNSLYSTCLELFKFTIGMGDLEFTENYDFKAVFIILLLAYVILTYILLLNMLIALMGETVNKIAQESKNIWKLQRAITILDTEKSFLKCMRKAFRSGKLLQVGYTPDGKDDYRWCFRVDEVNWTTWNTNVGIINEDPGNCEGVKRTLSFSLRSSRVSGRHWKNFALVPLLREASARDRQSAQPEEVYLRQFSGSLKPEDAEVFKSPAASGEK
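TRPV1-expressing cells were cultured overnight at 35.5C and loaded with Fluo-8 calcium dye for 40 to 90 min at room temperature. After a 10 s baseline, compound was added and calcium influx was read kinetically for 3 min (ex 480/em 520 nm).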
CtBP-E1A inh = blocks the CtBP interaction with E1A; AlphaScreen GST-E1A/His-CtBP binding, 1536-well; active compounds read low; control for the full effect not named in the record; activity change, % (no concentration beside the values); actives 0.49% (n = 340,000); AID 651724; in the data active means activity change below about -65%; inconclusive means about -30% to -65%; inactive means above about -30%; note: % is set by controls: 0 for no effect and ±100 for the full control effect
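Steps: dispense buffer (Tris pH 8.0, NaCl 300 mM, TCEP 1 mM, BSA, Tween 20); add 5X protein mix (GST-E1A, His-CtBP, 125 nM each); pin 23 nL compound; 2 h at 37 °C, dark; add 5X beads (50 ug/mL); 1 h; read.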
Sfp PPTase inh = Sfp phosphopantetheinyl transferase inhibition; actives 3.5% (n = 310,000); Biochemical Sfp PPTase activity, qHTS; Potency, µM, without a hit: max response, negative = inhibition, hits mostly inhibitors; Q9F4F7; active = well fitted inhibition curve with a large enough effect; inconclusive = small, poorly fitted or top-dose-only effect, or another doubt; inactive = no such curve, though single readings can be large or run the other way;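 note: the enzyme is Sfp with the accession as filed and its product quenches rhodamine fluorescence; potency is the fitted concentration of half-maximal effect; 0% = enzyme reaction without inhibitor and -100% = no enzyme wells; top concentration of the series not given in the record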
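Sfp 15 nM + cpd, 15 min RT; start w/ rhodamine-CoA 5 uM, BHQ-2-YbbR 12.5 uM (final); 50 mM Hepes pH 7.6, 10 mM MgCl2, 0.01% NP-40, 0.01% BSA; read 525/598 nm at 0 and 30 min.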
Menin MLL FP FL = displaces fluorescein MLL peptide from human menin | Fluorescence polarization, fluorescein-MLL peptide displacement from menin | FP activity change, % at 61.4 µM | 290,000 tested, under 10 active; inconclusive = falling polarisation curve, or a change in total fluorescence; inactive = total fluorescence flat and polarisation flat or rising; no compound was filed as active; the % refers to the polarisation; negative = inhibition;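 note: % of control where 0% means no effect; inhibitors lower the polarisation; unlabelled MLL peptide was the positive control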
gsp ag = activates gsp, the McCune-Albright syndrome mutation; gsp mutant cells, cAMP HTRF, 30 min; control for the full effect not named in the record; Potency, µM (highest dose often 76.9 µM), without a hit: top-dose activation (cAMP increase), usual class: activators; actives 0.13% (n = 340,000); AID 624287; active = well fitted activation curve with a large enough effect; inconclusive = small, poorly fitted or top-dose-only effect, or another doubt; inactive = no such curve, though single readings can be large or run the other way; cell line not stated here;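 note: phosphodiesterase inhibitor Ro 20-1724 added with compounds to block cAMP breakdown; potency is the fitted concentration of half-maximal effect; nearly all actives have a fitted effect of over 60% in size; about a fifth of the inactives were tested at one dose only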
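Cells stably selected in G418 were plated at 2000/well, grown 16-24 hr, then given compounds in DMSO with the PDE inhibitor […] (300 uM solution added) for 30 min at 37C; cAMP was read by HTRF.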
gsp antagonist = antagonizes gsp, the McCune-Albright syndrome mutation | gsp-mutant cells, cAMP HTRF, 30 min; control for the full effect not named in the record | Potency, µM (series often up to 76.9 µM), for the others: top-dose activity change, negative = inhibition, actives largely listed as inhibitors | actives 0.4% (n = 340,000) | AID 624288; active = falling curve of any shape with a large fitted effect; inconclusive = falling curve, mostly with a smaller effect; inactive = flat or rising curve; cell line not stated here;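 note: intracellular cAMP measured with PDE inhibitor Ro 20-1724 present during compound exposure; potency is the fitted concentration of half-maximal effect; % is set by controls: 0 for no effect and ±100 for the full control effect; nearly all actives have a fitted effect of over 65% in size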
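Measurement of cellular cAMP by homogeneous time-resolved fluorescence following a 30 min compound exposure at 37C. The PDE inhibitor […] was present throughout; the assay buffer was DPBS with 0.05% BSA and 0.005% Tween 20.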
* marks the source's active call; other numbers are inactive results; ? = inconclusive; nt = not tested or not shown; [ ] = another dose, or the depositor's remark.

SMILES | ClpP mod | TRPV1 potentiator | CtBP-E1A inh | Sfp PPTase inh | Menin MLL FP FL | gsp ag | gsp antagonist
COc1ccc(Oc2cn[nH]c2-c2ccc(OCC(=O)NN)cc2O)cc1 | 0.0% | 11 | -5 | 0% | -8.8 | ? | -8%
CCN(C[C@H]1N[C@@](C)(C(=O)OC)[C@H]2C(=O)N(C)C(=O)[C@@H]12)S(=O)(=O)c1ccc(OC(F)(F)F)cc1 | 1.1% | nt | 6 | nt | nt | nt | 1%
CCN(CC)c1ccc(/C=N/NC(=O)CNC(=O)/C=C/c2ccco2)cc1 | nt | 0 | -24 | -5% | 0.8 | -3% | -16%
O=c1[nH]c(-c2ccco2)nc2sc3c(c12)CCCC3 | 1.3% | -12 | 1 | 14% | 0.1 | -11% | -6%
O=C(C1CC1)N(CCc1ccccc1)Cc1nc2ccccc2c(=O)[nH]1 | 0.7% | 24 | 2 | 0% | 0.2 | -9% | 0%
O=C(NCCS(=O)(=O)N1CCCCC1)c1ccc2c(c1)OCO2 | -19% | -1 | -2 | nt | nt | -1%[15.4 µM] | 10%
Cc1ccc(CCNC(=O)C(C)n2nc(C)c3c(C)n(-c4ccccc4)nc3c2=O)cc1 (stereo not given) | -0.1% | -6 | 1 | 22% | nt | 19% | -7%
Cc1ccc(C)c(NC(=O)CSc2nnc(-c3ccccc3C)o2)c1 | -0.5% | 19 | -3 | 3% | 0.1 | 23% | -3%
CCS(=O)(=O)c1nc(S(=O)(=O)c2ccc(Cl)cc2)c(NCCCN2CCCC2=O)s1 | -3.4% | 5 | -7 | -4% | nt | ? | 1%
COCCCN1C(=O)C(=O)/C(=C(/O)c2ccc(OC)cc2)C12C(=O)N(C)c1ccccc12 (stereo not given) | 0.6% | 5 | 1 | 23% | -2.2 | ? | 2%
COc1ccccc1COCC(O)CN1CCCCC1CO (stereo not given) | -1.3% | -13 | 5 | ? | -13 | ? | 11%
CCOc1ccc(S(=O)(=O)N2CCN(C)CC2)c(C)c1C | ? | 10 | -1 | 7% | -1.9 | -3% | 7%
O=C(CCCC(=O)N1CCN(c2ccc([N+](=O)[O-])cc2)CC1)c1ccccc1 | -0.8% | -13 | -6 | 1% | -0.1 | 31% | ?
O=C(Nn1cnc2ccccc2c1=O)c1ccccc1Cl | 0.4% | 5 | 9 | 11% | 5.5 | 4% | 4%
Cc1cc(C(=O)N/N=C/c2ccc([N+](=O)[O-])cc2)c(C)o1 | nt | 2 | -12 | 3% | 1.4 | -1%[15.4 µM] | -4%
CCOc1cccc(/C=N/Nc2nc(N3CCCC3)nc(N3CCCC3)n2)c1O | -1.1% | 8 | nt | 4% | 1.4 | -10% | ?
S=C(Nc1ccc(Br)cc1Cl)NN1CCOCC1 | nt | 1 | -8 | 20% | 0.2 | 28% | 1%
CCC1CCCCN1CCCNC(=O)Cn1ncc2c(C)n(Cc3ccccc3Cl)c(C)c2c1=O (stereo not given) | -11% | 15 | -2 | 2% | -0.4 | -25% | 11%
O=C(CSc1nnc(Nc2ccccc2F)s1)NC1CCCC1 | 0.5% | -7 | -4 | nt | nt | 0% | 2%
CC(Oc1ccccc1Cl)C(=O)Nc1ccc(S(=O)(=O)N2CCCC2)cc1 (stereo not given) | 4.4% | -13 | -5 | nt | nt | 24% | -5%
CN(c1ccc(OCC(=O)N2CCOCC2)cc1)S(=O)(=O)c1ccc(F)cc1 | nt | -5 | 9 | -3% | 0.4 | 2% | -1%
CC(C)[C@H](NC(=O)N1c2ccccc2NC(=O)[C@@H]1C(C)C)C(=O)N[C@H](Cc1ccccc1)C(=O)O | 1.9% | -10 | 5 | 17% | -0.7 | nt | 5%
C[C@@]12CCC=C[C@H]1[C@H](c1ccoc1)N(Cc1ccccc1)C2=O | -1.3% | -14 | -26 | 7% | 8.0 | nt | 0%
Cc1cc(C)nc(N2CCN(C(=O)CCC(=O)Nc3nnc(C(C)C)s3)CC2)n1 | nt | -5 | 3 | -7% | -1.6 | -7%[15.4 µM] | -10%
CS(=O)(=O)N1CCN(c2ccccc2NC(=S)NC(=O)c2ccccc2[N+](=O)[O-])CC1 | nt | -1 | nt | 18% | -3.4 | 17%[15.4 µM] | -39%
CC(=O)c1ccc(N2CCN(C(=O)Cc3n[nH]c(=O)c4ccccc34)CC2)cc1 | ? | 2 | 4 | -4% | 1.4 | 5%[15.4 µM] | 1%
O=C(OC1CCOC1=O)c1cc(-c2cccc(Br)c2)nc2ccccc12 (stereo not given) | nt | 11 | 8 | -4% | -1.3 | -19%[15.4 µM] | -23%
COc1cccc(-c2nc(CCl)cs2)c1OC | -3.5% | 21 | 4 | 1% | -0.6 | -2%[15.4 µM] | 13%
O=C(Nc1cnn(C23CC4CC(CC(C4)C2)C3)c1)c1cnn2cccnc12 | -0.3% | -13 | 1 | -3% | 3.2 | -56%[inhibitor] | -16%
CCOC(=O)CN1C(=O)CC(c2ccccc2)C1=O (stereo not given) | 0.7% | 4 | 27 | 5% | 2.7 | 0%[15.4 µM] | -20%
Oc1c(Br)cc(/C=N/NC(=S)NCc2ccco2)cc1Br | nt | -4 | -12 | -17% | 2.5 | -43%[inhibitor][15.4 µM] | 1%
CC(=O)Nc1ccc(-c2cc(-c3ccc(NC(C)=O)cc3)nc(-c3ccccc3)n2)cc1 | 7.9µM* | -14 | 2 | 3% | 5.6 | ? | 5%
Cc1nn2c3c(cnc2c1-c1ccccc1)C(=O)CC(c1ccco1)C3 (stereo not given) | 21% | -3 | 0 | 89µM* | ? | ? | -6%
CCCCCCCc1c(C)nc(N2CCOCC2)[nH]c1=O | -1.0% | -1 | 1 | 11% | 2.5 | 13% | 12%
O=C(Nc1nc(-c2ccccc2)c(-c2ccccc2)o1)c1ccc(F)cc1 | ? | -3 | -15 | 9% | 5.4 | 7% | ?
COc1ccc(C2CC(c3ccc(F)cc3)Nc3nc(N)nn32)cc1OC (stereo not given) | 1.5% | nt | 2 | 26% | -3.8 | -19% | 9%
C#CCOCCOCCOCCNc1nc(N2CCN(C(=O)C([C@@H](C)CC)n3cc(C(N)COC(=O)C(F)(F)F)nn3)CC2)nc(N2CCN(C(=O)[C@H](CCC(=O)O)n3cc(C(N)CC(C)C)nn3)CC2)n1 (stereo not given in full) | -1.4% | nt | nt | nt | nt | -1% | -5%
CCN(CC(=O)NCc1ccc(Cl)cc1)C(=O)NCc1ccc(Cl)cc1 | -2.8% | -1 | 3 | -5% | -3.3 | -3%[15.4 µM] | -6%
CC1CC(C)CN(CCCNC(=O)C2CCN(c3nnc(-n4cccc4)s3)CC2)C1 (stereo not given) | 0.0% | 9 | -20 | 4% | -1.9 | -23% | -1%
O=[N+]([O-])c1ccccc1C=NNc1ccccc1 | nt | nt | ? | nt | nt | 11% | -18%
CN(CC(=O)NCCc1ccc(S(N)(=O)=O)cc1)S(=O)(=O)c1ccc(Br)s1 | nt | 5 | 1 | 24% | -0.4 | -6% | 7%
CC1=C(C#N)C(c2ccc(O)cc2)C2=C(CC(C)(C)CC2=O)N1 (stereo not given) | -28% | -13 | 2 | 12% | nt | 1% | 10%
CN(Cc1ccccc1)N=Nc1ccccc1 | 0.2% | nt | -12 | nt | nt | 2% | nt
O=C(NC(=S)Nc1ccccc1O)c1cncc(Br)c1 | 1.5% | nt | -9 | nt | nt | -8%[15.4 µM] | -8%
CC(=O)Nc1c2c(nn1-c1ccc(Cl)cc1)CSC2 | -0.7% | -1 | nt | 18% | -0.8 | 16% | 6%
O=C(NCc1cccc(C(F)(F)F)c1)C1CC(c2ccccc2[N+](=O)[O-])=NO1 (stereo not given) | 1.2% | -14 | 6 | 2% | 4.2 | nt | 2%
COC(=O)Nc1ccc(Oc2ccccc2)cc1 | -0.1% | -14 | 9 | 9% | 4.0 | 1% | -4%
S=C1NC[C@H](Cc2ccccc2)N1CCCCC1CCCCC1 | -1.2% | 10 | -1 | 15% | -4.7 | nt | -3%
O=C(CNC(=O)c1nc[nH]c1C(=O)N1CCNCC1)OCc1ccccc1 | 0.0% | 2 | 4 | nt | nt | nt | 12%
CCN1CCCC1CNC1=NCCCCC1 (stereo not given) | -5.2% | 8 | -5 | 10% | 3.6 | -17% | 8%
CN(CC(=O)Nc1c(Cl)cccc1Cl)C(=O)c1ccc(NS(=O)(=O)c2ccc3[nH]c(=O)[nH]c3c2)cc1 | -2.0% | nt | -19 | nt | nt | 16% | 6%
O=C(c1cccc(F)c1)N1CCC(c2nc3ccccc3s2)CC1 | -0.4% | -10 | -3 | ? | 2.6 | ? | -8%
Cc1cc(C(=O)Cn2cc(C(F)(F)F)ccc2=O)c(C)n1CC1CCCO1 (stereo not given) | -1.3% | -1 | -2 | nt | nt | 0% | 5%
Cc1ccc(NS(=O)(=O)c2sc3ccc(Cl)cc3c2C)cc1 | 0.5% | 5 | 7 | 7% | 2.3 | -6%[15.4 µM] | -14%
O=C(O)c1ccc(NS(=O)(=O)c2ccc(Cl)cc2)cc1 | 1.3% | 23 | 3 | -25% | 4.2 | 6% | -7%
CCOC(=O)C1NN=C(C(=O)c2ccc(C)cc2)C1c1ccc(C)cc1 (stereo not given) | -6.0% | -10 | 0 | -1% | 0.5 | 14% | -10%
Oc1ccccc1/C=N/n1c(-c2ccccc2)n[nH]c1=S | -2.3% | 10 | 3 | ? | -1.3 | -17%[15.4 µM] | -9%
COc1cc2nc(-c3cccs3)oc(=O)c2cc1OC | 0.0% | nt | 6 | nt | nt | 3% | 37%[activator]
Cc1ccc(-c2nn(-c3ccccc3)c3[nH]c(=O)c(CNCc4ccccc4)cc23)cc1 | ? | -12 | -12 | -4% | 3.8 | -8% | -3%
CCCCNC(=O)CSc1nc(O)cc(=O)n1C1CCCC1 | -0.6% | ? | -21 | 6% | 1.0 | 13%[15.4 µM] | -13%
c1ccc(CCNc2ncnc3c2cnn3-c2ccccc2)cc1 | -21% | 17 | 6 | 5% | -0.4 | -9% | -5%
